Env fusion inh – HIV envelope-mediated fusion inhibition; inhibition, % at 12.3 µM; HeLa-JRFL Env/CEM21 cell fusion, luciferase; 1.1% of 360,000 active;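 active means mean replicate inhibition score of at least 50 and every replicate individually at or above 50; inconclusive means only one of the two criteria met; inactive means mean below 50 and not all replicates reaching 50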;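 further: 0% = plate neutral controls and 100% = maraviroc near 300 nM; one replicate is shown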
UUG fidelity – modulators of start codon recognition fidelity in yeast; S. cerevisiae UUG-firefly luciferase reporter, luminescence/redox ratio; activity score, % at 18.7 µM; 0.13% of 350,000 active; AID 602363;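 active means replicate mean at a twofold rise or more, about +100% in these data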;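 further: firefly luciferase made from a UUG start codon reports start codon fidelity; reporter light over untreated wells divided by growth signal over untreated wells; some hits fall short of that in this replicate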
Numbers without * were called inactive; ? = inconclusive; [ ] = dose if it differs, or a comment.

entry	Env fusion inh	UUG fidelity	mol
1	-17[16.7 µM]	-7	Cc1noc(C)c1S(=O)(=O)Nc1ccc2c(c1)C(=O)N([C@H](C)CO)C[C@H](C)[C@H](CN(C)S(=O)(=O)c1cccs1)OCCCC[C@H](C)O2
2	11[16.7 µM]	-18	O=S(=O)(N[C@@H]1CC[C@@H](CCn2cc(-c3cccc(F)c3)nn2)O[C@H]1CO)c1ccc(F)cc1
3	-2[16.7 µM]	26	Cc1ccccc1S(=O)(=O)N[C@@H]1CC[C@H](CCNS(=O)(=O)c2cccc(F)c2)O[C@H]1CO
4	-10[16.7 µM]	-9	C[C@H](CO)N1C[C@H](C)[C@@H](CN(C)Cc2ccccc2)Oc2c(NC(=O)Nc3ccc(F)cc3)cccc2C1=O
5	4[16.7 µM]	0	CCC(=O)N[C@H]1CC[C@H](CCNS(=O)(=O)c2ccc(Cl)cc2)O[C@H]1CO
6	-61[16.7 µM]	-16	Cc1ccc(S(=O)(=O)Nc2ccc3c(c2)C(=O)N([C@H](C)CO)C[C@H](C)[C@@H](CN(C)C(=O)Nc2ccccc2)OCCCC[C@@H](C)O3)cc1
7	-41[16.7 µM]	11	COc1ccc(S(=O)(=O)Nc2ccc3c(c2)C(=O)N([C@H](C)CO)C[C@H](C)[C@@H](CN(C)C(=O)C2CCCCC2)OCCCC[C@H](C)O3)cc1
8	-4[16.7 µM]	11	Cc1noc(C)c1NC(=O)Nc1ccc2c(c1)C(=O)N([C@H](C)CO)C[C@H](C)[C@@H](CN(C)Cc1ccccc1)OCCCC[C@@H](C)O2
9	16[16.7 µM]	23	C[C@@H]1CN([C@H](C)CO)C(=O)Cc2cc(NC(=O)NC3CCCCC3)ccc2O[C@@H]1CN(C)C(=O)Nc1ccc2c(c1)OCO2
10	-11[16.7 µM]	4	COc1ccc(C(=O)Nc2ccc3c(c2)OC[C@H](C)N(C)C[C@@H](C)[C@@H](OC)CN(C)C3=O)cc1
11	?	3	C[C@@H]1CN([C@@H](C)CO)S(=O)(=O)c2ccc(-c3cccc(F)c3)cc2O[C@H]1CN(C)CC1CC1
12	27[16.7 µM]	0	C[C@@H]1CN([C@H](C)CO)C(=O)c2cccc(NC(=O)c3ccc(-c4nccs4)cc3)c2O[C@H]1CN(C)CC1CCCCC1
13	-9[16.7 µM]	-5	C[C@H]1CN([C@@H](C)CO)C(=O)c2cc(-c3ccccc3)cnc2O[C@H]1CN(C)Cc1cccnc1
14	-2[16.7 µM]	11	Cc1ccc(S(=O)(=O)N(C)C[C@H]2Oc3ncc(C#CC4(O)CCCC4)cc3C(=O)N([C@@H](C)CO)C[C@@H]2C)cc1
15	-7[16.7 µM]	2	COc1cccc(S(=O)(=O)N[C@@H]2C=C[C@@H](CC(=O)NCc3ccc(F)cc3)O[C@H]2CO)c1
16	2[16.7 µM]	-25	O=C(N[C@H]1CC[C@H](CCn2cc(-c3ccccn3)nn2)O[C@@H]1CO)c1cccnc1
17	15[16.7 µM]	-11	O=C(NCC[C@H]1CC[C@H](NC(=O)C2CCCC2)[C@@H](CO)O1)c1ccc(F)cc1
18	-5[16.7 µM]	-13	O=C(C[C@H]1CC[C@@H](NC(=O)Nc2cccc(F)c2)[C@H](CO)O1)NCC1CC1
19	9[16.7 µM]	10	CC(=O)N(C)C[C@H]1Oc2cc(-c3ccccc3C)ccc2S(=O)(=O)N([C@H](C)CO)C[C@H]1C
20	-20[16.7 µM]	10	CCCNC(=O)C[C@H]1CC[C@H]2[C@@H](COc3ccc(NS(=O)(=O)c4ccccc4C)cc3C(=O)N2C)O1
21	28[16.7 µM]	10	C[C@H](CO)N1C[C@H](C)[C@H](CN(C)S(=O)(=O)c2ccc(Cl)cc2)Oc2ccc(NS(=O)(=O)c3ccc(F)cc3)cc2C1=O
22	5[16.7 µM]	3	C[C@@H]1CN([C@H](C)CO)C(=O)c2cc(NC(=O)Cc3cn(C)c4ccccc34)ccc2O[C@@H]1CN(C)S(=O)(=O)c1ccc(Cl)cc1
23	33[16.7 µM]	22	C[C@@H]1CN([C@@H](C)CO)S(=O)(=O)c2ccc(-c3cccc(C#N)c3)cc2O[C@H]1CN(C)Cc1cccc(F)c1
24	17[16.7 µM]	4	CNC[C@H]1Oc2ccc(N(C)C)cc2C(=O)N([C@@H](C)CO)C[C@H]1C
25	-37[16.7 µM]	-2	Cc1ccc(S(=O)(=O)Nc2ccc3c(c2)C(=O)N([C@H](C)CO)C[C@H](C)[C@@H](CN(C)C(=O)Nc2ccc(F)cc2)OCCCC[C@@H](C)O3)cc1
26	14[16.7 µM]	-15	COc1ccc(S(=O)(=O)N[C@H]2C=C[C@H](CC(=O)N3CCN(c4ccccc4)CC3)O[C@H]2CO)cc1
27	-2[16.7 µM]	-1	C[C@@H]1CN([C@@H](C)CO)C(=O)Cc2cc(NC(=O)CCCN(C)C)ccc2O[C@@H]1CN(C)S(=O)(=O)c1ccc(F)cc1
28	-18[16.7 µM]	4	Cc1ccc(S(=O)(=O)Nc2ccc3c(c2)CC(=O)N([C@H](C)CO)C[C@@H](C)[C@H](CN(C)S(=O)(=O)c2ccc(Cl)cc2)O3)cc1
29	3[16.7 µM]	4	C[C@H](CO)N1C[C@H](C)[C@H](CN(C)C(=O)c2ccccc2)OCCCC[C@H](C)Oc2ccc(NC(=O)NC3CCCCC3)cc2C1=O
30	-24[16.7 µM]	7	CCCN(C)C[C@H]1OCCCC[C@@H](C)Oc2ccc(NC(=O)Cc3ccccc3)cc2C(=O)N([C@H](C)CO)C[C@H]1C
31	5[16.7 µM]	-4	C[C@H](CO)N1C[C@H](C)[C@@H](CN(C)S(=O)(=O)c2cccs2)OCCCC[C@H](C)Oc2ccc(NC(=O)Nc3ccc(C(F)(F)F)cc3)cc2C1=O
32	7[16.7 µM]	2	C[C@@H]1CN([C@H](C)CO)C(=O)c2cc(NC(=O)Nc3ccccc3)ccc2O[C@@H](C)CCCCO[C@H]1CN(C)Cc1ccc(C(=O)O)cc1
33	0[16.7 µM]	-7	C[C@@H]1CCCCO[C@@H](CN(C)Cc2ccc3c(c2)OCO3)[C@H](C)CN([C@@H](C)CO)C(=O)c2cc(NC(=O)Nc3cccc4ccccc34)ccc2O1
34	-4[16.7 µM]	-9	CCCNC(=O)C[C@@H]1CC[C@@H]2[C@@H](COc3ccc(NC(=O)c4cc(F)cc(F)c4)cc3C(=O)N2C)O1
35	39[16.7 µM]	-5	C[C@@H]1CN([C@H](C)CO)C(=O)Cc2cc(NC(=O)CCCCCC(=O)Nc3ccccc3N)ccc2O[C@H]1CN(C)Cc1ccc(Oc2ccccc2)cc1
36	-8[16.7 µM]	-2	C[C@@H]1CN([C@@H](C)CO)C(=O)c2cc(-c3ccc(F)cc3)cnc2O[C@H]1CN(C)C(=O)Cc1ccccc1
37	-8[16.7 µM]	8	C[C@@H]1CN([C@@H](C)CO)C(=O)c2cc(C#C[C@@H](C)O)cnc2O[C@@H]1CN(C)Cc1cncnc1
38	?	30	CCCNC(=O)N1[C@H](CO)[C@H](c2ccc(-c3cccnc3)cc2)[C@@H]1C#N
39	-22[16.7 µM]	-11	Cc1cc(C(=O)Nc2cccc3c2O[C@H](CN(C)CC2CCCCC2)[C@@H](C)CN([C@H](C)CO)C3=O)n(C)n1
40	1[16.7 µM]	26	C/C=C/c1ccc2c(c1)O[C@H](CN(C)C(=O)c1ccccc1)[C@H](C)CN([C@H](C)CO)S2(=O)=O
41	9[16.7 µM]	9	CC(C)NC(=O)N(C)C[C@@H]1Oc2ccc(NC(=O)CCN3CCOCC3)cc2C(=O)N([C@@H](C)CO)C[C@H]1C
42	-7[16.7 µM]	-12	O=C(Cc1ccccn1)NCC[C@H]1CC[C@H](NC(=O)Nc2ccc(F)cc2)[C@@H](CO)O1
43	11[16.7 µM]	-3	COc1ccc(NC(=O)Nc2ccc3c(c2)C(=O)N([C@H](C)CO)C[C@@H](C)[C@H](CN(C)S(=O)(=O)c2ccc(OC)cc2)O3)cc1
44	10[16.7 µM]	24	C[C@H]1CN([C@@H](C)CO)S(=O)(=O)c2ccc(C#CC3CCCC3)cc2O[C@H]1CN(C)Cc1ccccc1C(=O)O
45	6[16.7 µM]	23	C[C@@H]1CCCCO[C@H](CN(C)Cc2ccccc2)[C@H](C)CN([C@@H](C)CO)C(=O)c2cc(NS(=O)(=O)c3cn(C)cn3)ccc2O1
46	4[16.7 µM]	24	COc1ccc(S(=O)(=O)Nc2ccc3c(c2)C(=O)N([C@@H](C)CO)C[C@H](C)[C@H](CN(C)S(=O)(=O)c2ccc(OC)cc2)O3)cc1
47	8[16.7 µM]	0	O=C(Nc1ccc(C(F)(F)F)cc1)N[C@@H]1C=C[C@H](CC(=O)N2CCCCC2)O[C@H]1CO
48	-31[16.7 µM]	8	C[C@@H]1CN([C@@H](C)CO)C(=O)c2cccc(NC(=O)Nc3ccc(C(F)(F)F)cc3)c2O[C@@H]1CN(C)C(=O)NC1CCCCC1
49	-8[16.7 µM]	-6	C[C@@H]1CN([C@H](C)CO)C(=O)c2cccc(NS(C)(=O)=O)c2O[C@@H]1CN(C)Cc1ccccc1
50	-26[16.7 µM]	4	COc1ccc(S(=O)(=O)N(C)C[C@@H]2Oc3ccc(NS(=O)(=O)c4cccs4)cc3CC(=O)N([C@@H](C)CO)C[C@H]2C)cc1

Some of these compounds in order of their number in UUG fidelity, descending.
entry	Env fusion inh	UUG fidelity	mol
38	?	30	CCCNC(=O)N1[C@H](CO)[C@H](c2ccc(-c3cccnc3)cc2)[C@@H]1C#N
27	-2[16.7 µM]	-1	C[C@@H]1CN([C@@H](C)CO)C(=O)Cc2cc(NC(=O)CCCN(C)C)ccc2O[C@@H]1CN(C)S(=O)(=O)c1ccc(F)cc1
34	-4[16.7 µM]	-9	CCCNC(=O)C[C@@H]1CC[C@@H]2[C@@H](COc3ccc(NC(=O)c4cc(F)cc(F)c4)cc3C(=O)N2C)O1

Some of the entries so far, with one line to a screen.
28	Cc1ccc(S(=O)(=O)Nc2ccc3c(c2)CC(=O)N([C@H](C)CO)C[C@@H](C)[C@H](CN(C)S(=O)(=O)c2ccc(Cl)cc2)O3)cc1
29	C[C@H](CO)N1C[C@H](C)[C@H](CN(C)C(=O)c2ccccc2)OCCCC[C@H](C)Oc2ccc(NC(=O)NC3CCCCC3)cc2C1=O
30	CCCN(C)C[C@H]1OCCCC[C@@H](C)Oc2ccc(NC(=O)Cc3ccccc3)cc2C(=O)N([C@H](C)CO)C[C@H]1C
31	C[C@H](CO)N1C[C@H](C)[C@@H](CN(C)S(=O)(=O)c2cccs2)OCCCC[C@H](C)Oc2ccc(NC(=O)Nc3ccc(C(F)(F)F)cc3)cc2C1=O
32	C[C@@H]1CN([C@H](C)CO)C(=O)c2cc(NC(=O)Nc3ccccc3)ccc2O[C@@H](C)CCCCO[C@H]1CN(C)Cc1ccc(C(=O)O)cc1
33	C[C@@H]1CCCCO[C@@H](CN(C)Cc2ccc3c(c2)OCO3)[C@H](C)CN([C@@H](C)CO)C(=O)c2cc(NC(=O)Nc3cccc4ccccc34)ccc2O1
34	CCCNC(=O)C[C@@H]1CC[C@@H]2[C@@H](COc3ccc(NC(=O)c4cc(F)cc(F)c4)cc3C(=O)N2C)O1

entry no. | 28 | 29 | 30 | 31 | 32 | 33 | 34
Env fusion inh | -18[16.7 µM] | 3[16.7 µM] | -24[16.7 µM] | 5[16.7 µM] | 7[16.7 µM] | 0[16.7 µM] | -4[16.7 µM]
UUG fidelity | 4 | 4 | 7 | -4 | 2 | -7 | -9

(next part)
entry	Env fusion inh	UUG fidelity	mol
51	12[16.7 µM]	-13	C[C@@H]1CN([C@@H](C)CO)C(=O)Cc2cc(NS(=O)(=O)c3cn(C)cn3)ccc2O[C@@H]1CN(C)CC1CCCCC1
52	3[16.7 µM]	-13	C/C=C/c1ccc2c(c1)O[C@@H](CN(C)C(=O)Nc1ccccc1)[C@@H](C)CN([C@H](C)CO)S2(=O)=O
53	-94[16.7 µM]	-3	COC(=O)C[C@@H]1C[C@H]2c3cc(NS(=O)(=O)c4ccccc4)ccc3O[C@H]2[C@H](CO)O1
54	-3[16.7 µM]	-19	O=C(C[C@H]1C=C[C@@H](NC(=O)CN2CCOCC2)[C@H](CO)O1)NCc1cccc(F)c1
55	75*[16.7 µM]	13	C[C@@H]1CN([C@@H](C)CO)C(=O)c2cccc(NS(=O)(=O)c3ccc(F)cc3)c2O[C@@H]1CN(C)Cc1ccc(-c2ccccc2)cc1
56	-26[16.7 µM]	-2	C[C@H]1CN([C@@H](C)CO)C(=O)c2cccc(NS(=O)(=O)c3ccc(Cl)cc3)c2O[C@H]1CN(C)S(=O)(=O)c1ccc(Cl)cc1
57	1[16.7 µM]	11	C[C@@H]1CN([C@H](C)CO)C(=O)Cc2cc(NC(=O)Nc3ccc4c(c3)OCO4)ccc2O[C@H]1CN(C)Cc1ccccc1
58	-9[16.7 µM]	-13	O=C(C[C@H]1CC[C@@H](NC(=O)CN2CCOCC2)[C@@H](CO)O1)NC1CCC1
59	-4[16.7 µM]	-11	O=C(N[C@@H]1CC[C@@H](CC(=O)N2CCCCC2)O[C@@H]1CO)c1cccc(F)c1
60	-10[16.7 µM]	-7	CN(C)CC(=O)N[C@@H]1CC[C@H](CC(=O)NCc2ccc(Cl)cc2)O[C@H]1CO
61	13[16.7 µM]	14	COc1ccccc1-c1cn(CC[C@H]2CC[C@H](NC(=O)c3ccccc3F)[C@@H](CO)O2)nn1
62	9[16.7 µM]	-3	C[C@H]1CN([C@@H](C)CO)S(=O)(=O)c2ccc(/C=C/c3ccccc3)cc2O[C@@H]1CN(C)C(=O)c1ccc2c(c1)OCO2
63	10[16.7 µM]	-16	COc1ccc(S(=O)(=O)N(C)C[C@H]2OCCCC[C@H](C)Oc3ccc(NC(=O)Nc4ccc5c(c4)OCO5)cc3C(=O)N([C@H](C)CO)C[C@@H]2C)cc1
64	-8[16.7 µM]	-4	C[C@H](CO)N1C[C@H](C)[C@@H](CN(C)S(=O)(=O)c2cn(C)cn2)Oc2cc(C#Cc3cccc(F)c3)ccc2S1(=O)=O
65	16[16.7 µM]	28	Cc1ccc(S(=O)(=O)N(C)C[C@@H]2Oc3cc(Br)ccc3S(=O)(=O)N([C@@H](C)CO)C[C@@H]2C)cc1

From PubChem

Not all compounds are listed. The share of hits here may be higher or lower than overall.
